# NPYLR7 agonist: agonists of mosquito NPYLR7 receptor, primary screen, cell-based, Aedes aegypti, calcium fluorescence, mosquito biting behavior | Aedes aegypti neuropeptide Y-like receptor 7 (NPYLR7) | HEK293T NPYLR7/Galpha15, GCaMP6s calcium fluorescence | activation, % at 10 µM | 270,000 compounds, 0.15% hits | AID 1259423, 2018; in the data active = activation above about 40%;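 note: 0% = vehicle and 100% = reference agonist at the receptor; some compounds past the cut are filed as inactive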
# NPYLR7 agonist max-min: further read-out of NPYLR7 agonist, marked with its call; activation, %; measured here: Max-Min RFU normalised activation; some inactives read as strong as hits;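 span of the calcium signal over five minutes; 0% = vehicle and 100% = native peptide agonist; compound fluorescence can raise it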
# The depositor's hits bear a star; & = joins results of further samples. The list is partial; rates above refer to the full screens.
Compound	NPYLR7 agonist	NPYLR7 agonist max-min
Cc1cc(N(C)C)ccc1Nc1nccc(C(F)(F)F)n1	1	-1
Cc1cc(=O)[nH]c(SCC(=O)Nc2cc(Cl)ccc2-n2cncn2)c1C#N	2	0
COc1ccc(CCNC(=O)c2cc3n(n2)CCN(Cc2cccc(C(F)(F)F)c2)C3=O)cc1OC	14	2
O=C(CNC(=O)c1ccccc1Cl)N=Nc1c(O)[nH]c2ccc([N+](=O)[O-])cc12	0	-12
O=C(Nc1cccc(Cl)c1)C(C1CCCC1)N1CCN(C(=O)c2ccco2)CC1 (stereo unspecified)	-1	6
Cn1cccc1C1CC(c2ccccc2Cl)=NN1C(=O)CN1CCCC1 (stereo unspecified)	16	23
CCc1nc2ccc(C(=O)NCc3ccc4c(c3)OCO4)cn2c1N(CC)C(C)=O	-3	-8
CS(=O)(=O)N1CCCC1C(=O)N1CCN(c2nc3c(Cl)cccc3s2)CC1 (stereo unspecified)	-2	-4
Cc1ccccc1C1=NOC(CN(Cc2ccc(C(F)(F)F)cc2)C(=O)C2CCC2)C1 (stereo unspecified)	18	14
CN(Cc1ccnc2ccccc12)C(=O)CS(C)(=O)=O	-1	-2
CCN(CC)c1ccc(CNC(=O)N2CCC(C#N)CC2)cc1	1	-3
CCOC(=O)C1=C(C)N=c2s/c(=C/c3cccc([N+](=O)[O-])c3)c(=O)n2C1c1ccccc1F (stereo unspecified)	1	-1
CCc1c(C)c2cc([N+](=O)[O-])c(O)c(C)c2oc1=O	-15	-19
O=C(CSc1ncccn1)N1CCc2c(cnn2-c2ccc(Cl)cc2)C1	-1	18
CCN1C(=O)C2(NCCS2)c2cc(F)ccc21 (stereo unspecified)	7	13
O=C(CN(C(=O)C1CC1)C1CC1)N(CCc1c[nH]c2ccccc12)Cc1ccc(F)cc1	14	19
CC(C)n1c(=O)c(C(=O)NCCCN(C)c2ccccc2)cc2cccnc21	-4	-11
O=C(CSc1ncnc2c1nnn2Cc1ccccc1F)NC1CCCC1	15	13
COC(=O)CCCC(=O)N1CCC(c2nc(-c3ccc4c(c3)OCO4)no2)CC1	12	6
Cc1ccc(-c2cc(CN3CCC4(CCCO4)CCC3=O)on2)cc1 (stereo unspecified)	7	2
COc1ccc2cc(C3CN(C(=O)C4(C)CCNCC4)CCO3)ccc2c1 (stereo unspecified)	-4	-5
CC(C)C(O)C1CCN(Cc2nc(-c3cccs3)no2)CC1 (stereo unspecified)	-5	-8
N#CCCN(CCC#N)C(=S)Nc1ccc(F)cc1F	7	4
CC(C)C(NC(=O)CN(C)S(C)(=O)=O)c1ccc(C(C)(C)C)cc1 (stereo unspecified)	0	-3
C=CCOC(CN1CCN(C(=O)c2snnc2C)CC1)c1cccc(N2CCCC2)c1 (stereo unspecified)	3	-1
CCCNC(=O)c1nnc2n1CCN(CC(C)Cc1ccc3c(c1)OCO3)C2 (stereo unspecified)	-1	-2
Cc1ccc2cccc(OS(=O)(=O)c3cc([N+](=O)[O-])ccc3Cl)c2n1	10	12
CC1CCN(c2nc(NC(C)(C)CO)nc(N3CCOCC3)n2)CC1	2	0
O=[N+]([O-])c1cc(S(=O)(=O)N2CCCC2)ccc1Sc1nnnn1-c1ccccc1	-1	1
Cn1nc(C(=O)Nc2ccc(Cl)c(S(=O)(=O)Nc3cccc(Cl)c3)c2)ccc1=O	0	0
O=C(CNC(=O)c1ccc2c(c1)OCO2)N=Nc1c(O)[nH]c2ccc([N+](=O)[O-])cc12	23	2
Cc1ccc(-n2nnc3c(SCc4cccc(F)c4)ncnc32)cc1	3	30
COCC(=O)Nc1ccc(N(C)C)c(CN(Cc2ccco2)C(=O)c2ccc(OC)cc2)c1	4	15
C=CCC=NNc1nc2ccccc2s1	-4	-2
O=C(Nc1ccc(CCN2CCOCC2)cc1)c1cc(F)cc2[nH]cnc12	13	8
O=C(CCc1ccccc1)NC12CC3CC(CC(C3)C1)C2	5	6
CC1CCN(C(=O)c2cc3c(=O)n4ccccc4nc3s2)CC1	4	1
CCCc1c(C(=O)N2CCN(C(C)=O)CC2)cnn1-c1ccccc1C	25	20
CC(=O)Nc1ccc(CC2CCN(C(=O)Nc3ccc(F)cc3)CC2)cc1	4	15
CCN(CC)C(=O)Cn1nc(C)c(S(=O)(=O)N2CCOCC2)c1C	0	14
Cc1nccn1Cc1ccc(O)c2ncccc12	1	2
O=C(COc1ccccc1)N1CCN=C1SCc1cccnc1	2	-2
CC(=O)NC1=NC(=O)/C(=C/c2ccc(-c3ccc(F)cc3F)o2)S1	-6	-13
COc1ccc(C(=O)Nc2ccc3c(c2)Cc2ccccc2-3)cc1[N+](=O)[O-]	2	-13
Cc1cc(Oc2ccc(F)cc2F)nc(SCc2cccc(C#N)c2)n1	20	27
Cc1ccc(-c2csc3nc(/C(Cl)=C/c4csnn4)[nH]c(=O)c23)cc1	10	4
O=C(Nc1nncs1)N(CC(F)(F)F)C1CCCC1	3	1
Cc1nn(C)c(Cl)c1S(=O)(=O)N1CCC2(CCCN(C)C2=O)C1 (stereo unspecified)	1	-1
COCCN(Cc1nccn1Cc1ccccc1C(F)(F)F)C(=O)c1cccc(OC)c1	3	9
O=C(CC1CCC1)NS(=O)(=O)Cc1cc(Cl)ccc1F	3	0
O=C(NCCN1Cc2ccccc2OC(c2ccsc2)C1)C(c1cccnc1)N1CCOCC1 (stereo unspecified)	11	0
O=C(NCCc1ccccc1)c1cc(NC(=O)C(c2ccccc2)c2ccccc2)ccc1N1CCCC1	2	8
O=C(COC(=O)CN1C(=O)C(=O)c2ccccc21)Nc1ccc([N+](=O)[O-])cc1	6	3
CN1CCN(c2nc3c(c(=O)[nH]c(=O)n3C)n2CC(N)=O)CC1	0	-1
C=CCn1c(SCc2ccc(C(=O)NC3CC3)cc2)nnc1-c1ccco1	0	9
CC(=O)N(C)c1nc(N)n(-c2ccccc2)n1	9	7
N#Cc1ccc(CN(CC(F)(F)F)C(=O)CCc2ccsc2)cc1	2	1
CC1=C(C(=O)Nc2ccccc2C)C(c2ccncc2)n2nc(SCc3ccccc3)nc2N1 (stereo unspecified)	6	6
CCOc1ccccc1C(=O)Nc1ccc(N2CCN(C(=O)c3cc(F)ccc3Cl)CC2)nc1	-1	9
Cc1ccccc1C(=O)N1C(C(=O)NCC2CCCO2)COC12CCN(C(=O)Cc1ccccc1)CC2 (stereo unspecified)	2	21

# One compound at a time, from the list above. Values in the order: NPYLR7 agonist	NPYLR7 agonist max-min
# `O=C(CC1CCC1)NS(=O)(=O)Cc1cc(Cl)ccc1F` across the screens: 3	0
# `Cc1cc(Oc2ccc(F)cc2F)nc(SCc2cccc(C#N)c2)n1` across the screens: 20	27
# `CCOc1ccccc1C(=O)Nc1ccc(N2CCN(C(=O)c3cc(F)ccc3Cl)CC2)nc1` across the screens: -1	9
# `C=CCn1c(SCc2ccc(C(=O)NC3CC3)cc2)nnc1-c1ccco1` across the screens: 0	9
# `Cc1nn(C)c(Cl)c1S(=O)(=O)N1CCC2(CCCN(C)C2=O)C1` (stereo unspecified) across the screens: 1	-1

# Remaining list, next part.
Compound	NPYLR7 agonist	NPYLR7 agonist max-min
CCN(CC)c1cc(C)nc(Nc2ccc(NC(=O)C(C)Oc3ccccc3)cc2)n1 (stereo unspecified)	7	1
CCOC(=O)C1(Cc2cccc(OC)c2)CCCN(C(=O)CCn2ccnc2C)C1 (stereo unspecified)	8	8
COc1ccc(CN2CCn3nc(C(=O)N4CCN(c5cccc(C(F)(F)F)c5)CC4)cc3C2=O)cc1	8	21
COc1ccc(NC(=O)CSc2ncnc3c2oc2ccccc23)c(OC)c1	5	1
CC(C)c1nc2n(n1)CC(NCCCS(=O)(=O)N(C)C)CC2 (stereo unspecified)	9	7
Cc1ccc(NC2CCCN(C(=O)c3cn(C)c4ccccc34)C2)cc1C (stereo unspecified)	1	1
COCCOC(=O)c1c2c(n3ccc(C)cc13)C(=O)c1ccccc1C2=O	-6	-11
COc1cccc(C(=O)Nc2nnc(SCC(=O)Nc3nccs3)s2)c1OC	-7	-15
CSc1ccc(CN2CCC(CO)(CCOc3ccccc3)CC2)cc1	4	5
CC(=O)c1cc(C(=O)N2CCC(c3nc(-c4ccncc4)ncc3-c3cccc(C)c3)CC2)cs1	14	3
Cc1ccccc1C(=O)NC(C(=O)N1CCCC1)C1CCN(C(=O)c2ccccc2F)CC1 (stereo unspecified)	20	24
CC(C)Cc1cc(C(=O)N2CCCC2c2ccc(C(N)=O)s2)no1 (stereo unspecified)	6	-4
Cn1nnn(CN2CCN(S(=O)(=O)Cc3ccccc3)CC2)c1=S	2	2
Cc1cc(NCC(C)C)n2nc(C)c(-c3ccccc3)c2n1	-4	-7
CCOC(=O)C1=C(NC(=O)c2ccccc2)c2ccccc2CC1(CC)CC	0	-1
CCC(=O)NCC(=O)NC(c1ccc(Cl)cc1)c1ccsc1 (stereo unspecified)	-7	-8
Cc1ccc(-n2c(=O)c3ccccc3n3c(SCCC#N)nnc23)cc1	-2	-1
COc1ccc(CN2CCC2(C)C(=O)NCc2ccccn2)c2ccccc12 (stereo unspecified)	3	-1
Cc1noc(CN(C)C(=O)c2cc(C(C)C)no2)n1	1	1
COCc1nn2c3c(cnc2c1-c1ccc(Cl)cc1)C(=O)CCC3	0	-3

# Random excerpt: 2 entries already listed, in no set order.
Compound	NPYLR7 agonist	NPYLR7 agonist max-min
COCCOC(=O)c1c2c(n3ccc(C)cc13)C(=O)c1ccccc1C2=O	-6	-11
Cc1ccc(NC2CCCN(C(=O)c3cn(C)c4ccccc34)C2)cc1C (stereo unspecified)	1	1

# Next results follow.
Compound	NPYLR7 agonist	NPYLR7 agonist max-min
Cc1nc(C)n(CCNC(=O)CC2COCCN2)n1 (stereo unspecified)	-5	-5
CCC(=O)N1CCC1(C)C(=O)Nc1cccc2cccnc12 (stereo unspecified)	4	0
COc1cc(-c2nnc(CCC(=O)N3CCN(C4CCCC4)CC3)c(=O)[nH]2)ccc1OCC1CCC1	5	3
CC(NC(=O)CCc1nnc(Cc2ccc(-c3ccccc3)cc2)o1)c1ccccc1 (stereo unspecified)	1	-2
O=c1c2c(-c3ccco3)csc2nc(SCCN2CCOCC2)n1-c1ccccc1	-2	-3
Fc1ccc(-c2cnn3c(NCc4cccc(Cl)c4)ccnc23)cc1Cl	-1	-7
Cc1ccccc1CN(C)CN1C(=O)C(=O)c2cc3c(cc21)OCCO3	2	0
Cc1cc(NCCCn2ccnc2)n2ncc(-c3ccc(Cl)cc3)c2n1	3	6
CCCOc1cccn2c(N(C)C(=O)COc3ccccc3)c(CC)nc12	-16	-19
N#Cc1cc(-c2nc3ccccc3[nH]2)c(N)n2c1nc1ccccc12	5	2
COc1ccc(-c2nccn2CCCn2ccnc2)c2ccccc12	5	2
CCC(C)NC(=O)Cn1nc([N+](=O)[O-])c(Cl)c1C (stereo unspecified)	-6	-11
CC(C)(C)OC(=O)N1CCC(Oc2ccc(NC(=O)c3cc(C(F)(F)F)cc(C(F)(F)F)c3)cc2)C1 (stereo unspecified)	-6	-15
Cn1c(=O)c([N+](=O)[O-])c(O)c2ccccc21	1	4
CC1CN(C(=O)C2CCN(C(=O)C(C)C)CC2)CC(C)O1 (stereo unspecified)	4	2
C=CC(C)(O)CN(CCN1CCOCC1)Cc1cccc(C)c1 (stereo unspecified)	22	15
Cn1c2c(cc(C(=O)N3[C@@H]4CC[C@H]3CNC(=O)C4)c1=O)CCCC2	11&3	4&2
O=C(CC(c1ccc2c(c1)OCO2)c1c[nH]c2ccccc12)NCc1ccco1 (stereo unspecified)	-3	7
CN1CCC2(CC1)CN(C(=O)COCc1nc3ccccc3[nH]1)CCN2C	14	4
O=S(=O)(NC1CCN(S(=O)(=O)c2cccc(C(F)(F)F)c2)CC1)c1ccccc1	0	-1
Cc1ccsc1CNC(=O)CCc1ccc(C#N)cc1	2	1
Cc1nccn1CC1CCCN(Cc2cnc3cc(O)ccc3c2)C1 (stereo unspecified)	-2	-10
COc1cc(OC)c2cc(CCCN)[nH]c2c1	-1	-1
C=C(CO)C1Oc2ccc(C(C)=O)c(O)c2C1O[C@@H]1O[C@H](CO)[C@@H](O)[C@H](OC(=O)CC(C)(O)CC(=O)O)[C@H]1O (stereo partly specified)	-7	-16
CN(C(=O)c1ccc(C#N)cc1)c1ccccc1C(=O)NCc1ccco1	6	8
C=C(C)[C@@H]1CC=C(CN2CCC(n3nccc3NC(=O)Cc3ccccc3)CC2)CC1	13	2
Cc1ccoc1C(=O)Nn1cnc2scc(-c3ccccc3)c2c1=O	0	29
Cc1csc(C2C(N)=NC(=S)C(C#N)C23CCCC3)n1 (stereo unspecified)	4	0
Cc1nc2n(n1)C(=O)C(C(c1ccccc1F)N1CCN(c3cccc(Cl)c3)CC1)S2 (stereo unspecified)	-4	-13
COc1ccccc1-c1onc(C)c1C(=O)NCc1ccco1	6	5
CN(C(N)=O)c1ccc(OCc2nc(-c3ccsc3)no2)cc1	9	-4
O=c1cc(CN2CCCC2c2ccc(F)cc2)nc2c(O)cccn12 (stereo unspecified)	7	-3
N#C/C(=C\c1c(Cl)cccc1Cl)c1nn(CCO)c(N)c1C#N	1	-2
Cc1ccccc1-c1ccc(CN2CCC(Cc3nncn3C)CC2)cc1	14	-1
Cc1cccc(C)c1NC(=O)c1c(-c2ccccc2Cl)noc1C	4	7
Cc1ccc(NC(=O)Cn2nnc(C(=O)NCc3ccccc3)c2N)c(C)c1	-6	-12
COc1ccc(N2C(=O)/C(=C\C3CCOC3)N(C)C2=S)c([N+](=O)[O-])c1 (stereo unspecified)	-3	10
